AID923: qHTS Assay for Allosteric/Competitive Inhibitors of Caspase-1: Spectroscopic Profiling in AFC Spectral Region; hit rate 1.1% among 75,000; Potency, µM (doses to about 57.5 µM), for inactives: at the highest dose fluorescence increase, actives largely listed as activators; AID 923, 2007; compound fluorescence, AFC spectral region (405/520 nm); almost no hit is shown here; active = well fitted activation curve with a large enough effect; inconclusive = small, poorly fitted or top-dose-only effect;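 note: potency is the fitted concentration of half-maximal effect; 0% is about no effect; scaled to a free AFC standard on each plate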
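Titrations up to 57 uM read every 20 sec for 3 min (405/520 nm) with 50 nM caspase 1 and 5 uM Ac-WEHD-AFC, pH 7.5 HEPES buffer. Fluorescence-vs-time intercept gave baseline, scaled against on-plate AFC standard.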
Resorufin fluor: resorufin region autofluorescence | Compound fluorescence, resorufin region 547/598 nm, buffer; hits give high values | max dye-equivalent concentration, M | hit rate 0.04% among 59,000 | AID 588; active = above 10 nM dye equivalent; inconclusive = 1 to 10 nM; inactive = 1 nM or less; a few of its hits are not listed in these tables; note: highest value over a series up to 38 µM
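Dye-equivalent concentration values derive from comparing each well's 547/598 nm fluorescence against resorufin standards included on every plate. Incubation was 15 min at room temperature in 100 mM Tris, pH 8.0.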
TSHR ag: agonists of human thyroid stimulating hormone receptor; P16473; HEK293-CNG-TSHR cells (CNG channel as cAMP sensor), membrane potential dye, cAMP; Potency, µM (doses to about 57.1 µM), inactives show top-dose activation, most hits filed as activators; hit rate 0.48% among 73,000; active = well fitted activation curve of enough size with the parental cells flat; inconclusive = any curve in the parental cells; inactive = parental cells flat and receptor cells flat or falling; note: potency is the fitted concentration of half-maximal effect; % of control where 0% means no effect; weak receptor curves with flat parental cells got no call and are not listed
Target sequence (P16473 whole entry, looked up): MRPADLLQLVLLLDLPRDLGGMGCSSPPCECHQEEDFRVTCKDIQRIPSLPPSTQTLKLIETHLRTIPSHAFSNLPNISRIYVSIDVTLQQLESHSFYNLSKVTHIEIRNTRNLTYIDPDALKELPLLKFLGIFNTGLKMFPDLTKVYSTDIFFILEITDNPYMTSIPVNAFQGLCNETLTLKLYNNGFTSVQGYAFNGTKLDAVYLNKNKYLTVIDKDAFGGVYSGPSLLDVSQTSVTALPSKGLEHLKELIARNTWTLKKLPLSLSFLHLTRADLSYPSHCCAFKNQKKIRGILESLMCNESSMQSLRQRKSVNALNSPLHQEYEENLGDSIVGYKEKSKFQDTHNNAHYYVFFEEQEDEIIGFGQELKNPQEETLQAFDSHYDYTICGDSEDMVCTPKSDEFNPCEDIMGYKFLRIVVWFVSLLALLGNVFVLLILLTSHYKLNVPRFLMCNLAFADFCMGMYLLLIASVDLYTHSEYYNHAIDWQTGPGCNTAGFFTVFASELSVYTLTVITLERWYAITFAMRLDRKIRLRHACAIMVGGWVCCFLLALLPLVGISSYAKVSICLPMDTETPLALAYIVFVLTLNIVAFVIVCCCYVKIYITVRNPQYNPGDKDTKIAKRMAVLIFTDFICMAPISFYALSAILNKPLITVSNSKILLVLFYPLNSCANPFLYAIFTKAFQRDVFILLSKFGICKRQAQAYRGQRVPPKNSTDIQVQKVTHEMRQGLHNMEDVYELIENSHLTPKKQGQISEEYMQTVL
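HEK 293 cells stably expressing TSHR and a cAMP-gated CNG channel; parental CNG-only cells as counterscreen. Cells preloaded 60 min with membrane potential dye plus 100 uM RO 20-1724, then compound 30 min; fluorescence read at 590 nm.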
A488 fluor: compound fluoresces in the A488 spectral region; compound autofluorescence, A488 spectral region, dye equivalency; hits give high values; max dye equivalency, M; hit rate 0.1% among 59,000; AID 591; active = above 10 nM dye equivalent; inconclusive = 1 to 10 nM; inactive = 1 nM or less; about half of its hits are not listed in these tables;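 note: highest value over a series up to 38 µM; compound alone in buffer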
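Compound autofluorescence was read in 100 mM Tris pH 8.0 after 15 min at room temperature, ex 480 nm/em 540 nm. Intensities were converted to A488 dye-equivalent concentration using an on-plate six-point A488 standard curve.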
A647 fluor: compound fluoresces in the A647 spectral region | AID 592 | max dye-equivalent concentration, M | 59,000 tested, under 10 active | Compound fluorescence, A647 channel (570/671 nm), Tris buffer; active means above 1 µM dye equivalent; inconclusive means 0.1 to 1 µM; inactive means 0.1 µM or less;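 note: values scaled relative to a standard on each plate; highest value over a series up to 38 µM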
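Fluorescence read (570 nm ex, 671 nm em) after 15 min RT incubation of compounds in 100 mM Tris buffer, pH 8.0; values expressed as dye-equivalent concentration against a six-point A647 standard series on each plate.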
The depositor's hits bear a star; i = inactive; ? = inconclusive; . = not tested or not shown; [ ] = remark or other dose. An excerpt; the hit share may differ from the screen's.

SMILES	AID923	Resorufin fluor	TSHR ag	A488 fluor	A647 fluor
CCOc1ccccc1NC(=O)CSc1nnc(-c2ccco2)o1	1.2%	.	19.0%	.	.
COc1cc(C(=O)OCC(=O)Nc2cc(C)on2)ccc1OCc1ccccc1Cl	-1.0%	i	1.5%	i	6.1e-09
O=C1CCc2cc(S(=O)(=O)N3CCCC3C(=O)N3CCN(c4ccccc4)CC3)ccc2N1 (centres undefined)	-3.9%	.	3.4%	.	.
O=C(O)CCCCCNC(=O)CCn1cnc2ccccc2c1=O	-0.6%	i	-3.6%	i	4.5e-09
COc1ccc(NC(=O)CSc2nnc(Cc3cccn3C)n2-c2ccc(C)cc2)cc1OC	1.2%	i	20.7%	i	1.01e-08
CC(=O)N1CCN(CCN(CC2C(C)C=C(C)CC2C)C(C)=O)CC1 (centres undefined)	1.2%	i	5.9%	i	4.4e-09
O=C(c1ccco1)c1nnn(Cc2ccccc2)c1-c1ccccc1	0.7%	.	?	.	.
CC1CN(C(=O)N(C)C)CCN1C(=O)N(C)C (centres undefined)	3.4%	.	-0.7%	.	.
O=C(Nc1cc(=O)c2ccccc2o1)N1CCCCC1	0.5%	i	4.5%	i	5.5e-09
N#Cc1ccc(CN2CC3(CCN(C(=O)c4ccncc4)CC3)C2)cc1	2.5%	i	-2.0%	i	2.7e-09
CC1Cc2ccccc2N1C(=O)CSc1nnc(CNc2ccccc2)o1 (centres undefined)	-1.8%	i	2.7%	i	1.27e-08
CCOC(=O)c1cnc(SC)nc1Nc1cccc(F)c1	0.6%	.	21.8%	.	.
O=S(=O)(c1ccc(Cl)cc1)N1CCC(N2CCCCCC2)CC1	.	i	.	i	1e-09
Cn1c(SCc2ccc(F)cc2)nnc1-c1ccccn1	-1.4%	i	-5.8%	i	3e-08
Clc1cccc(-c2cc3nc4c(c(N5CCOCC5)n3n2)CCCC4)c1	-1.4%	i	.	i	4e-09
COc1cc(OC)cc(C(=O)Nc2cccc(N3CCCC3)c2)c1	-0.1%	i	-30.2%[inhibitor]	i	1.94e-08
N#CCCn1c(=O)c(CCc2ccccc2)nc2cnc(OCc3ccccc3)nc21	3.8%	i	?	i	1e-09
Cc1nc(N=Nc2cc(S(=O)(=O)O)ccc2S(=O)(=O)O)c(COP(=O)(O)O)c(C=O)c1O	9.3%	.	-7.0%	.	.
O=C(NCc1ccco1)c1cc2n(n1)C(C(F)(F)F)CC(c1ccc(Br)cc1)N2 (centres undefined)	-0.2%	i	-8.8%	i	1.39e-08
COc1cc(C(=O)NCCC(=O)NCc2ccc3c(c2)OCO3)cc(OC)c1OC	2.2%	i	12.2%	i	3.5e-09
COCCC(=O)NC12CC3CC(CC(C3)C1)C2	-1.0%	i	28.5%	i	1.71e-08
COc1ccccc1N1CCN(C(c2cccs2)C(C)NS(=O)(=O)c2ccccc2)CC1 (centres undefined)	1.5%	.	13.2%	.	.
Cn1c(=O)c2c(nc(SCC(=O)c3cccs3)n2Cc2ccc(F)cc2)n(C)c1=O	0.2%	i	33.3%	i	1.44e-08
Cc1nc2nc(Cc3ccccc3)[nH]n2c(=O)c1Cc1ccccc1	-1.9%	i	0.9%	i	1e-09
C=CCNc1nc(N2CCCC2)nc2ccccc12	-2.9%	i	?	i	6.9e-09
c1n[nH]c(NCc2ccc3c(c2)OCO3)n1	-1.0%	i	-6.5%	i	2.53e-08
COc1cc(-c2nc(S(=O)(=O)c3ccc(C)cc3)c(N(C)C)o2)cc(OC)c1OC	-1.0%	i	9.6%	i	1e-09
COc1ccc(NS(=O)(=O)c2ccc3c(c2)CCC(=O)N3)c(OC)c1	3.2%	i	-3.7%	i	1e-09
COc1ccc(S(=O)(=O)N(C)c2ccc(C(=O)N3CCOCC3)cc2)cc1OC	-0.4%	i	-9.4%	i	2.22e-08
COc1ccc(-c2noc(C3CCCN(C(=O)CCc4ccccc4)C3)n2)cc1 (centres undefined)	-2.8%	i	?	i	1.05e-08
COc1ccc(N(CC(=O)O)S(=O)(=O)c2cccnc2)cc1	-1.2%	i	-0.3%	i	1.74e-08
CN(C)S(=O)(=O)c1ccc(S(=O)(=O)N(CC(=O)Nc2ccccc2)Cc2ccco2)cc1	-3.1%	i	1.7%	i	1.7e-09
Cc1ccnc(SCCn2c(N3CCOCC3)nc3c2c(=O)n(C)c(=O)n3C)n1	1.8%	i	5.8%	i	1e-09
COC(=O)c1c(C)noc1-c1cc(C)on1	.	i	.	i	3.9e-09
CSc1nsc(SCC(=O)N2CCCc3ccccc32)n1	1.5%	i	?	i	1.1e-09
CC1Cn2c(nnc2-c2cccc(Cl)c2)S1 (centres undefined)	3.1%	.	6.2%	.	.
COc1ccccc1C(=O)N1CCN=C1SC	-1.2%	i	14.9%	i	2.21e-08
CC(C)C1Cc2c(sc3c2c(=O)n(-c2ccccc2)c2nncn32)CO1 (centres undefined)	.	i	.	i	3.56e-08
CCOC(=O)c1c(-c2ccc(C)o2)csc1NC(=O)CN1CCN(CC)CC1	-1.7%	i	1.6%	i	1.54e-08
CCOc1ccc(CN2C(=O)CCC2(C)C(=O)NCc2cccnc2)cc1 (centres undefined)	-1.7%	.	-0.9%	.	.
CCCCCCC1CC(CSc2ncn[nH]2)OC1=O (centres undefined)	0.4%	i	17.0%	i	1e-09
CC1CCCCN1C(=O)Cn1cc(C(=O)c2ccco2)c2ccccc21 (centres undefined)	-3.7%	i	?	i	1e-09
O=C(CN1C(=O)C2C3C=CC(C3)C2C1=O)NCC1COc2ccccc2O1 (centres undefined)	1.0%	i	-1.4%	i	6.5e-09
COc1cccc(/C=N/NC(=O)c2cc(-c3ccc(C)cc3)n[nH]2)c1O	1.5%	.	23.9%	.	.
Cc1nc2ncnn2c(C)c1CCC(=O)Oc1ccccc1	-0.6%	i	.	i	1.19e-08
C=CCn1c(NCc2cc(C)ccc2O)nc2ccccc21	-0.5%	.	-8.2%	.	.
CSc1ccc(C2Nc3ccccc3-c3cc(C)nn32)cc1 (centres undefined)	2.5%	i	2.5%	i	6e-09
O=C(O)[C@@H]1[C@@H](C(=O)O)[C@]23C[C@@]2(C(=O)O)[C@]2(C(=O)O)CCC3=C3CCCC312	-0.9%[11.5 µM]	i	2.0%[11.4 µM]	i	3.77e-08
CCCCNC(=O)C(c1ccc(OCC(=O)OC)c(C(=O)OC)c1)N(Cc1ccccn1)C(=O)CCCCCN1C(=O)NC(c2ccc(-c3ccccc3)cc2)C(C(=O)OCc2ccccc2)=C1C (centres undefined)	0.8%	.	?	.	.
CCOC(=O)Cc1c(C)nc2cc(-c3ccc(Cl)cc3)[nH]n2c1=O	1.0%	i	-23.3%	i	2e-09
Cc1ccccc1OCC(O)Cn1c(NCCN(C)C)nc2c1c(=O)n(C)c(=O)n2C (centres undefined)	-0.3%	.	-12.4%	.	.
O=C(NCCc1ccccc1)C1CCN(S(=O)(=O)c2cccc3nsnc23)CC1	-0.9%	i	8.0%	i	1e-09
COc1ccc2oc(=O)c(C(=O)N3CCc4ccccc43)cc2c1	0.1%	i	-0.2%	i	1e-09
CCC(C)(C)N=C(NC#N)Nc1cccnc1	0.8%	.	5.1%	.	.
CCC(C)NC(=O)C1c2ccccc2C(=O)N1Cc1cc(OC)ccc1OC (centres undefined)	-1.7%	i	?	i	3.15e-08
CCC(Oc1ccccc1)C(=O)N1CC(C)CC(C)C1 (centres undefined)	0.1%	i	16.8%	i	1.03e-08
Cc1cccc(N(CC(=O)N2CCCC2)S(=O)(=O)c2ccccc2)c1	3.3%	i	19.6%	i	1.8e-08
COc1ccc2c(c1)c(CCN1C(=O)c3ccccc3C1=O)cn2C(=O)c1ccco1	2.0%	.	4.3%	.	.
CC1=C(C(=O)Nc2ccccc2)C(c2ccc(C)o2)N2C(=O)CSC2=N1 (centres undefined)	3.5%	.	7.7%	.	.
Cc1cnc(NC(=O)CN2C(=O)C3CC=CCC3C2=O)s1 (centres undefined)	0.7%	i	-0.5%	i	3.21e-08

The list goes on (four carried over from the part before).
SMILES	AID923	Resorufin fluor	TSHR ag	A488 fluor	A647 fluor
Cc1cccc(N(CC(=O)N2CCCC2)S(=O)(=O)c2ccccc2)c1	3.3%	i	19.6%	i	1.8e-08
COc1ccc2c(c1)c(CCN1C(=O)c3ccccc3C1=O)cn2C(=O)c1ccco1	2.0%	.	4.3%	.	.
CC1=C(C(=O)Nc2ccccc2)C(c2ccc(C)o2)N2C(=O)CSC2=N1 (centres undefined)	3.5%	.	7.7%	.	.
Cc1cnc(NC(=O)CN2C(=O)C3CC=CCC3C2=O)s1 (centres undefined)	0.7%	i	-0.5%	i	3.21e-08
COC(=O)CNc1nc(OC)nc(N(C)C)n1	-0.5%	i	5.7%	i	7.8e-09
Cc1nn(C)cc1CNC(=O)c1cc2n(n1)C(C(F)(F)F)CC(c1cccs1)N2 (centres undefined)	-0.4%	i	-3.9%	i	1.14e-08
CN(C1=NC(=O)C(CC(=O)Nc2ccc(Br)cc2)S1)c1ccc(O)cc1 (centres undefined)	-1.5%	i	?	i	1.03e-08
CCOC(=O)c1[nH]c2ccc(OC)cc2c1NC(=O)c1ccc2c(c1)OCO2	1.9%	.	?	.	.
Cc1oc(-c2ccc(Cl)cc2)nc1CS(=O)CC(=O)NCCCN(C)C1CCCCC1 (centres undefined)	0.9%	i	-1.7%[11.4 µM]	i	5.3e-09
O=C(NC1CCCCCCC1)c1cnccn1	0.8%	.	0.2%	.	.
CCC(C)(C)NC(=O)CN(C(=O)CNS(=O)(=O)c1ccccc1)c1ccccc1	-4.1%	i	0.6%	i	5.2e-09
COc1ccc(OC)c(C(=O)c2ccc(C(=O)N3CCCCC3)cc2)c1	4.1%	.	8.2%	.	.
CCCC[C@@H]1C[C@H]1C(NC(=O)c1ccccc1)c1ccc(-c2ccccc2)cc1 (some centres undefined)	-1.8%	.	10.8%	.	.
CCCc1nc(SCC(N)=O)[nH]c(=O)c1CC	-0.2%	i	.	i	1.59e-08
COc1ccc(OC)c(NC(=O)CSc2nnc(N)s2)c1	-4.0%	i	-0.6%	i	3.1e-09
COc1ccc(-c2coc3cc(O[C@@H]4O[C@@H](CO)[C@@H](O)[C@@H](O)[C@H]4O)cc(O)c3c2=O)cc1	.	i	-2.8%	i	5.2e-09
O=C(NC(Cc1ccccc1)C(=O)O)c1ccc(S(=O)(=O)N2CCOCC2)cc1 (centres undefined)	-1.1%	i	-1.9%	i	1.56e-08
Cc1nc(NC(=O)c2ccc(Br)s2)sc1C(=O)N(C)C	0.1%	i	-6.1%	i	2.56e-08
COCCCNC(=O)Cn1nnc(-c2ccc(NC(=O)c3ccc(F)cc3)cc2)n1	0.2%	i	9.7%	i	1.68e-08
Cc1nc2cc(S(=O)(=O)C(F)(F)F)ccc2s1	-0.5%	i	4.5%	i	1.6e-09
O=C(NCc1cccnc1)c1noc2c1CCCC2	0.0%	i	-0.6%	i	2.09e-08
COc1ccc(NC(=O)N2CC[C@@]3(CCCN(C(=O)c4ccco4)C3)C2)cc1	0.4%	i	1.2%	i	2.6e-08
CCC(C)NC(=O)c1cc(CC(C)C)on1 (centres undefined)	0.6%	.	3.9%	.	.
c1ccc(C2Nc3ccccc3-c3nc4ccccc4n32)nc1 (centres undefined)	.	i	.	i	2.1e-09
COc1ccc2[nH]c(I)c(CCNC(C)=O)c2c1	-6.0%	i	?	i	6.19e-08

Compound profiles (already shown):
`COC(=O)c1c(C)noc1-c1cc(C)on1` is listed with AID923: .; Resorufin fluor: i; TSHR ag: .; A488 fluor: i; A647 fluor: 3.9e-09
`N#CCCn1c(=O)c(CCc2ccccc2)nc2cnc(OCc3ccccc3)nc21` is listed with AID923: 3.8%; Resorufin fluor: i; TSHR ag: ?; A488 fluor: i; A647 fluor: 1e-09

Screening data from PubChem.
